Compound activity (PubChem BioAssay)
MARV entry inh – Marburg virus entry inhibition; Marburg virus pseudotyped entry inhibition, cell reporter; control for the full effect not named in the record; about a third of the inactives were read at about 46 µM; Potency, µM (top dose mostly 37.8 µM), without a hit: at the highest dose activity change, negative = inhibition, usual class: inhibitors; 300,000 tested, 1.8% active; AID 540276; active = well fitted inhibition curve with a large enough effect; inconclusive = small, poorly fitted or top-dose-only effect, or effect the other way; inactive = flat fitted curve, though single readings scatter; tested in HEK293 cells; about a fifth of its hits are not listed in these tables; also: % is scaled to controls: 0 for no effect and ±100 for the full control effect; luciferase read-out
Cruzain Triton – inhibitors of Trypanosoma cruzi cruzain with detergent. 200,000 tested, 0.43% active. Potency, µM, for inactives: max response, negative = inhibition, actives largely listed as inhibitors. purified cruzain, Z-FR-AMC fluorescence, 0.01% Triton. P25779; active = well fitted curve in the direction sought with a large enough effect; inconclusive = small, poorly fitted or top-dose-only effect, or another doubt; inactive = no such curve, though single readings can be large; an effect the other way counts as inactive or inconclusive;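 also: plate controls were neutral wells for no effect and buffer without enzyme for full effect; nearly all actives have a fitted effect of over 40% in size; top concentration of the series not given in the record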
Target sequence (P25779 123-467 limits assumed): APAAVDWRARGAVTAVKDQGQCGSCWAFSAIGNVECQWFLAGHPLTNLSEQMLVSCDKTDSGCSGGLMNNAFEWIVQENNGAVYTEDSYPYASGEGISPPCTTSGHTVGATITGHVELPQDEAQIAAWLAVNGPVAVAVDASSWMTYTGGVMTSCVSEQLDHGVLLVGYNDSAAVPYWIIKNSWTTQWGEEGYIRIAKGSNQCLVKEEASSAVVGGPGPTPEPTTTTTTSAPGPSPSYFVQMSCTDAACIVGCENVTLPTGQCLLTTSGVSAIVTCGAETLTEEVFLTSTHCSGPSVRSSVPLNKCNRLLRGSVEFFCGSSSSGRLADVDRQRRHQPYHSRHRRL
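Sodium acetate buffer (100 mM, pH 5.5) containing 5 mM DTT and 0.01% Triton X-100 hosted 1.5 nM cruzain and test compound for 15 min at room temperature. Cleavage of 2 uM Z-FR-AMC was then tracked by fluorescence.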
NS1 function inh – inhibitors of influenza NS1 protein function. S. cerevisiae slowed by influenza A NS1, growth recovery by OD600. Potency, µM (titrated, usually from 46.1 µM), without a hit: top-dose activity, positive = more growth. 270,000 tested, 0.4% active. AID 2326; also: actives are rising curves; nearly all actives have a fitted effect of over 50% in size
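Read-out: OD600 growth recovery of NS1-expressing budding yeast. Cells grown overnight at 30C in -URA glucose medium, washed, resuspended and diluted 1:100 in 2% galactose assay medium, pH 6.0. Same strain lacking NS1 served as positive control.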
2A StopGo – lowers the luciferase signal of an FMDV 2A StopGo reporter; human cells with a luciferase reporter of 2A StopGo recoding; control for the full effect not named in the record; Potency, µM (series often up to 57.9 µM), for inactives: at the highest dose signal change, negative = less light; 410,000 tested, 1.2% active; AID 1159524; active = well fitted falling curve with a large enough effect; inconclusive = small, poorly fitted or top-dose-only effect; inactive = no such curve, though single readings can be large or run the other way; tested in HEK293T cells; also: % is scaled to controls: 0 for no effect and ±100 for the full control effect; nearly all actives have a fitted effect of over 45% in size; luciferase light after 4 h
Lassa entry inh – inhibitors of Lassa virus binding or cell entry. Potency, µM (titrated, usually from 37.9 µM), without a hit: top-dose activity change, negative = inhibition, usual class: inhibitors. Lassa virus pseudotype entry inhibition, cell reporter; control for the full effect not named in the record. 300,000 tested, 1.2% active; active means well fitted inhibition curve with a large enough effect; inconclusive means small, poorly fitted or top-dose-only effect, or effect the other way; inactive means flat fitted curve, though single readings scatter; tested in HEK293 cells; also: % is scaled to controls: 0 for no effect and ±100 for the full control effect; nearly all actives have a fitted effect of over 50% in size; luciferase read-out
SARS PLP yeast – SARS-CoV PLP inhibition in yeast. Potency, µM (highest dose often 32.9 µM), inactives show at the top dose activity, positive = growth rescue. AID 485353. 330,000 tested, 0.19% active. S. cerevisiae expressing SARS-CoV PLpro, growth rescue; control for the full effect not named in the record; also: 0% is about no effect; nearly all actives have a fitted effect of over 55% in size; growth read by luminescence after 48 h
RE007 growth inh – less growth of the S. pombe RE007 Vpr strain. S. pombe RE007 Vpr strain, BacTiter-Glo ATP luminescence, 24 h; control for the full effect not named in the record. Potency, µM (doses to about 92.2 µM), for the others: at the highest dose activity change, negative = less growth. 360,000 tested, 0.21% active. AID 651644; active = well fitted falling curve with a large enough effect; inconclusive = small, poorly fitted or top-dose-only effect; inactive = no such curve, though single readings can be large or run the other way;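 also: % is scaled to controls: 0 for no effect and ±100 for the full control effect; nearly all actives have a fitted effect of over 50% in size; the assay follows cell death caused by Vpr and the record does not say whether a fall means rescue or toxicity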
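Fission yeast strain RE007, carrying one chromosomally integrated HIV-1 vpr copy, was seeded at OD 0.01 in PMG+AL medium with 23 nL pinned compound. After 24 h at 30 °C and 99% humidity, viability was read by BacTiter-Glo luminescence.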
Cruzain inh noDet – cruzain (T. cruzi) inhibition without detergent. P25779. purified cruzain, Z-FR-AMC fluorescence, no detergent. Potency, µM, for inactives: max response, negative = inhibition, usual class: inhibitors. 200,000 tested, 2.3% active. AID 1476; active = well fitted curve in the direction sought with a large enough effect; inconclusive = small, poorly fitted or top-dose-only effect, or another doubt; inactive = no such curve, though single readings can be large; an effect the other way counts as inactive or inconclusive;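 also: plate controls were enzyme without inhibitor for no effect and buffer without enzyme for full effect; nearly all actives have a fitted effect of over 40% in size; top concentration of the series not given in the record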
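Detergent-free condition (0.00005% Triton X-100) in acetate buffer pH 5.5 with DTT. 1.5 nM enzyme and compound were pre-mixed 15 min, then 2 uM Z-FR-AMC substrate added; reaction progress from fluorescence change between first and third reads (60 s).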
* marks the source's active call; other numbers are inactive results; u = inconclusive; x = no result given; & = joins results of further samples; [ ] = another dose, or the depositor's remark. Unless noted, calls follow the shape of the dose curve; as a rule, active means well fitted rising curve with a large enough effect; inconclusive means small, poorly fitted or top-dose-only effect; inactive means no such curve, though single readings can be large or run the other way. Potency is read from the fitted curve at half-maximal effect.

SMILES	MARV entry inh	Cruzain Triton	NS1 function inh	2A StopGo	Lassa entry inh	SARS PLP yeast	RE007 growth inh	Cruzain inh noDet
CCN(CC)C(=O)CC(c1ccc2c(c1)OCO2)c1c(OC)cc(OC)c2ccc(=O)oc12 (stereo not given)	x	x	-2%	-6%	x	-1%	-9%	x
CCc1nnc(NC(=O)CCC(=O)NC2CCCCC2)s1	18%	6.1%	3%	2%	10%	9%	11%	12%
COc1ccc(NC(=O)Nc2nnc(Cc3ccc(F)cc3)s2)cc1	-27%[46.1 µM]	x	6%	-8%	u	0%	32%	x
CCOC(=O)CC(NCc1ccc(OC)c(OCC)c1)c1ccc(C)cc1 (stereo not given)	22%[46.1 µM]	x	x	-8%	-3%	0%	-5%	x
O=C(Nc1ccccc1)N1CCCC(CNS(=O)(=O)Cc2ccccc2)C1 (stereo not given)	12%[46.1 µM]	x	-4%	9%	x	0%	-13%	x
CN(C)c1cc[n+](CC(=O)Nc2cc(C(F)(F)F)ccc2Cl)cc1	-4%	1.1%	0%	x	3%	u	6%	3%
Cc1cc(C)c(OCC(=O)NCC2COc3ccccc3O2)c(C)c1 (stereo not given)	3.5µM*	x	x	-5%	-2%	6%	4%	x
COc1cc(/C=C/C(=O)c2ccc(C)c([N+](=O)[O-])c2)cc(OC)c1O	u	-3.2%	-2%	14µM*	-26%	-11%	-23%	0%
CCCCCC(=O)Nc1ccc(N2CCN(S(C)(=O)=O)CC2)cc1	20%	4.1%	0%	27%	-10%	3%	0%	-28%
CCOc1ccc(N2C(=O)C3CC(C)=C(C)CC3C2=O)c([N+](=O)[O-])c1 (stereo not given)	28%	4.0%	6%	-17%	-11%	2%	-17%	-3%
CCC(C)NC(=O)c1ccc(CNS(=O)(=O)c2ccc3c(c2)C(C)(C)C(=O)N3C)cc1 (stereo not given)	x	-1.6%	-1%	-10%&-7%	7%[46.1 µM]	13%	-1%	-6%
Cc1cc(C)c(Nc2ncccc2C(=O)O)c(C)c1	2%[46.1 µM]	x	1%	4%	0%	1%	13%	x
COc1cc(CN2CCC(C(N)=O)CC2)ccc1OCc1ccccc1	u	x	-11%	31%[activator]	u	-1%	-9%	x
Cc1nnc(SCC(=O)Nc2ccc(N3CCN(S(C)(=O)=O)CC3)cc2)o1	u	x	5%	-14%	6%[46.1 µM]	1%	-2%	x
Cn1c(=O)[nH]c(=O)c2c1nc1n2CCS1	1%[46.1 µM]	x	1%	-5%	u	5%	-14%	x
COc1cc(C(CC(=O)Nc2cccc(C)n2)N2Cc3ccccc3C2=O)cc(OC)c1OC (stereo not given)	-6%[46.1 µM]	x	7%	13%	0%	0%	-13%	x
CSc1cccc(N2CC(C(=O)NCCN3C(=O)S/C(=C\c4cccnc4)C3=O)CC2=O)c1 (stereo not given)	u	x	x	-19%	11%[46.1 µM]	1%	15%	x
CC(CCN1CCN(c2ccccn2)CC1)c1ccccc1 (stereo not given)	u	x	-8%	-13%	8%[46.1 µM]	2%	-16%	x
Cc1ccc2oc(=O)c3cnn(CC(=O)N4CCN(c5cccc(Cl)c5)CC4)c3c2c1	2%[46.1 µM]	0.1%	x	-25%	-8%[46.1 µM]	x	x	-12%
O=C(Nc1ccc2c(c1)OCCO2)Nc1ccc2c(c1)OCO2	u	x	x	-35%	8.9µM*	1%	-5%	x
CCn1c(C(=O)NC(C)c2ccc3c(c2)OCCO3)cc2sccc21 (stereo not given)	x	-2.9%	-60%	0%	x	-3%	4%	0%
COc1ccccc1/C=C/C1=NC(=C\C=C/c2ccccc2)/C(=O)O1	-25%	-15%	u	-25%	0%	-4%	-5%	25µM*
Cc1cc(C)cc(NC(=O)CSc2nnc(NC(=O)C3CC3)s2)c1	-8%[46.1 µM]	x	1%	-15%	-3%[46.1 µM]	4%	-17%	x
CCOc1ccc(C(=O)Nc2ccc(S(=O)(=O)N(Cc3ccccc3)c3ccccc3)cc2)cc1	u	-2.3%	x	-12%	-25%[46.1 µM]	x	x	u
CCc1cccc(C)c1Nc1c(-c2ccc(F)cc2)nc2sccn12	-23%[46.1 µM]	-9.8%	x	-23%	-21%[46.1 µM]	x	x	-5%
COC(=O)/C(N=Nc1cccc(C(F)(F)F)c1)=C(\C)O	-28%	-8.7%	6%	-23%	u	1%	u	11%
CCC(C)(CCNC(=O)Cc1ccccc1)c1ccccc1OC (stereo not given)	x	x	-42%	14%	x	-1%	-11%	x
Cc1noc(C)c1CSc1ccc2ccccc2n1	-6%	-5.5%	-63%	4%	-14%[14.3 µM]	4%	-16%	-13%
COc1cccc(-c2cc3nc4c(c(NCC(C)(C)CN(C)C)n3n2)CCCC4)c1	x	x	4%	-6%	u	0%	7%	x
CC1CCCN(c2ccc(N)cc2C(N)=O)C1 (stereo not given)	26%[46.1 µM]	x	4%	-15%	u	0%	-6%	x
NC(=O)[C@@H]1CCCN1Cc1nc(-c2ccccc2)no1	8%[46.1 µM]	x	1%	7%	9%[46.1 µM]	1%	11%	x
COc1ccc(C(=O)Nc2nnc(SCc3cc(=O)c4cccc(F)c4[nH]3)s2)cc1	x	1.1%	x	-29%	u	x	x	-21%
Cc1cc(C(=O)NP(=O)(N2CC(C)OC(C)C2)N2CC(C)OC(C)C2)c(C)n1C1CC1 (stereo not given)	14%[46.1 µM]	x	x	18%	-3%[46.1 µM]	0%	-6%	x
COc1ccc2c(c1)c(C(=O)CNc1nc(C)cs1)c(C)n2C	-5%&-5%	-2.8%	-20%	-25%	-3%	-32%	u	0%
Cc1cc(C)cc(NC(=O)CCc2nnc3n(C)c(=O)c4sccc4n23)c1	10%[46.1 µM]	-1.8%	x	-19%	1%[46.1 µM]	x	x	1%
CCOc1ccccc1NC(=O)c1cc(C(=O)c2cc(OC)ccc2O)coc1=N	-6%	-11%	-12%	-3%	-17%	-7%	x	-4%
Cc1ccc(C(=O)c2c(N)c(-c3nc(-c4ccc5c(c4)OCO5)cs3)c3ccccn23)cc1C	15%[46.1 µM]	-3.9%	x	3%	-11%[46.1 µM]	x	x	1.6µM*
COc1cccc(-c2nc(SC(C(C)=O)C(=O)N(C)C)c3c(=O)n(C)c(=O)n(C)c3n2)c1 (stereo not given)	x	3.9%	x	7%	-7%[46.1 µM]	x	x	-1%
COc1ccc(-n2cnnc2SCC(=O)N2CCN(c3ccccc3)CC2)cc1	1%	-0.8%	u	u	-12%	22%	4%	15%
O=C(NCCNc1ccccc1[N+](=O)[O-])c1cc(F)c(F)cc1Cl	u	x	1%	66%[activator]	-2%	0%	-3%	x
CCCOC(=O)NC1C(NC(=O)OCCC)N(C)C(=O)N1C (stereo not given)	12%	-2.1%	4%	-9%	-1%	0%	-13%	u
Cc1ccc(C(=O)NN2C(=O)C3C4C=CC(C5CC45)C3C2=O)cc1 (stereo not given)	-9%[46.1 µM]	x	x	20%	12%	1%	10%	x
CCC(Sc1nnc2c3ccccc3n(CC)c2n1)C(=O)Nc1ccc(NC(C)=O)cc1 (stereo not given)	3.5µM*	-9.1%	x	-15%	-18%[46.1 µM]	x	x	u
NS(=O)(=O)c1ccc(CNC(=O)c2cccnc2Cl)cc1	2%[46.1 µM]	x	1%	6%	6%[46.1 µM]	1%	-9%	x
O=C(Nc1ccc(C(F)(F)F)cc1)c1ccc(NC(=O)C2CCCO2)cc1 (stereo not given)	u	x	7%	-15%	u	4%	3%	x
CCC(C(=O)N1CCN(S(C)(=O)=O)CC1)c1ccccc1 (stereo not given)	11%	7.2%	-1%	2%	u	3%	-3%	-2%
CC(C)c1ccc(CN(C(=O)c2cc3ccccc3oc2=O)C2CCS(=O)(=O)C2)cc1 (stereo not given)	0%[46.1 µM]	-3.9%&-1.7%	-2%	44%&45%[activator]	12%[46.1 µM]	-5%	-10%	u
CC1CN(Cc2nc3ccccc3c(=O)[nH]2)CC(C)O1 (stereo not given)	-11%[46.1 µM]	x	1%	-3%	5%	-1%	9%	x
COc1ccc2nc(N(Cc3cccnc3)C(=O)C3CCCCC3)sc2c1	x	-4.9%	x	10%	0%[46.1 µM]	x	x	16%
CCOC(=O)Nc1ccc2c(c1)N(C(=O)CCN(CC)CC)c1ccccc1S2=O (stereo not given)	u	x	-5%	-11%	18µM*	-1%	-2%	x

(next part)
SMILES	MARV entry inh	Cruzain Triton	NS1 function inh	2A StopGo	Lassa entry inh	SARS PLP yeast	RE007 growth inh	Cruzain inh noDet
COC(=O)c1cc(-n2cccc2)ccc1N1CCOCC1	-1%	x	3%	-12%	25%	0%	-14%	x
CN(C)c1nc(N)c2ncc(=S)[nH]c2n1	2%[46.1 µM]	x	x	-8%	-22%	0%	-1%	x
COCCN(Cc1cc2cc3c(cc2nc1Cl)OCO3)C(=O)c1ccc(C)cc1	x	x	-1%	u	x	0%	-4%	x
N#CCc1nn(Cc2ccc(F)cc2)c(=O)c2ccccc12	x	x	-2%	-15%	x	1%	14%	x
CC(=O)c1c(C)[nH]c(C)c1C(C)=O	u	4.0%	-19%	x	12%	9%	-1%	2%
CN1CCC(=O)N([C@H](CSc2ccc(Br)cc2)Cc2ccccc2)CC1	x	x	-1%	-11%	x	1%	-5%	x
O=C(Nc1cccc(F)c1)NC1(C(=O)N2CCC(O)CC2)CCCCC1	u	x	1%	13%	u	4%	-3%	x
C=CCSc1nnc(NC(=O)c2cccc(S(=O)(=O)N3CCOCC3)c2)s1	3%	-0.1%	-7%	-20%	2%	2%	-4%	-2%
CC(NC(=O)C(Cc1ccccc1)n1cccc1)c1ccccc1 (stereo not given)	-12%	x	-5%	-3%	-37%	-3%	-11%	x
COc1ccc(S(=O)(=O)N2CCN(C(=O)CCNC(=O)c3ccccc3Cl)CC2)cc1	u	x	x	-14%	17%	-1%	-16%	x
CCOc1ccc(N2CC(c3nc4ccccc4n3CCCOc3ccccc3)CC2=O)cc1 (stereo not given)	-46%[46.1 µM]	-9.5%	x	u	u	x	x	u
COc1ccc(N=C2SC(C(N)=O)CC(=O)N2Cc2ccc3c(c2)OCO3)cc1 (stereo not given)	x	x	-1%	-13%	x	-1%	-5%	x
